# Assay outcomes deposited in PubChem by National Center for Advancing Translational Sciences (NCATS).
# Cruzain Triton = qHTS Assay for Promiscuous and Specific Inhibitors of Cruzain (with detergent); Cruzipain (Trypanosoma cruzi), P25779; purified cruzain, Z-FR-AMC fluorescence, 0.01% Triton; Potency, µM, for inactives: max response, negative = inhibition, hits mostly inhibitors; 200,000 compounds, 0.43% hits; AID 1478, 2009; active means well fitted curve in the direction sought with a large enough effect; inconclusive means small, poorly fitted or top-dose-only effect, or another doubt; inactive means no such curve, though single readings can be large; an effect the other way counts as inactive or inconclusive;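 further: plate controls were neutral wells for no effect and buffer without enzyme for full effect; nearly all actives have a fitted effect of over 40% in size; top concentration of the series not given in the record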
# Target sequence (P25779 123-467 limits assumed): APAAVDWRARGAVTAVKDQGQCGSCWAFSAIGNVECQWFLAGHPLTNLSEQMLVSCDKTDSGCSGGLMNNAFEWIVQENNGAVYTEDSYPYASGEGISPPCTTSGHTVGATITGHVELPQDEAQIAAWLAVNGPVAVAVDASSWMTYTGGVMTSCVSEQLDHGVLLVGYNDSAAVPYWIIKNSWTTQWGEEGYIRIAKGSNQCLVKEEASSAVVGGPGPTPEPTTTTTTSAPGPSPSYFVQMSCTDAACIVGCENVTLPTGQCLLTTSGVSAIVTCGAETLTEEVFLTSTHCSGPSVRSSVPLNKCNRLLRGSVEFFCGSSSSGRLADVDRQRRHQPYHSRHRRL
#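 Detergent-containing arm of a paired screen for aggregation-based inhibition: 0.01% Triton X-100 present. Cruzain at 1.5 nM cleaved 2 uM Z-FR-AMC at pH 5.5 with 5 mM DTT; AMC fluorescence gain over 60 s measured activity.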
# Lassa entry inh = qHTS for Inhibitors of binding or entry into cells for Lassa Virus | Lassa virus pseudotype entry inhibition, cell reporter; control for the full effect not named in the record | Potency, µM (titrated, usually from 37.9 µM), without a hit: top-dose activity change, negative = inhibition, most hits filed as inhibitors | 300,000 compounds, 1.2% hits | AID 540256, 2011; active means well fitted inhibition curve with a large enough effect; inconclusive means small, poorly fitted or top-dose-only effect, or effect the other way; inactive means flat fitted curve, though single readings scatter; tested in HEK293 cells; further: on the % scale 0 is the no-effect control and ±100 the full control effect; nearly all actives have a fitted effect of over 50% in size; luciferase read-out
# MARV entry inh = qHTS for inhibitors of binding or entry into cells for Marburg Virus. 300,000 compounds, 1.8% hits. AID 540276, 2011. Potency, µM (top dose mostly 37.8 µM), for inactives: at the top dose activity change, negative = inhibition, actives largely listed as inhibitors. Marburg virus pseudotyped entry inhibition, cell reporter; control for the full effect not named in the record; about a third of the inactives were read at about 46 µM; active = well fitted inhibition curve with a large enough effect; inconclusive = small, poorly fitted or top-dose-only effect, or effect the other way; inactive = flat fitted curve, though single readings scatter; tested in HEK293 cells; about a fifth of its hits are not listed in these tables; further: on the % scale 0 is the no-effect control and ±100 the full control effect; luciferase read-out
# Cruzain inh noDet = qHTS Assay for Promiscuous and Specific Inhibitors of Cruzain (without detergent) | purified cruzain, Z-FR-AMC fluorescence, no detergent | 200,000 compounds, 2.3% hits | Potency, µM, for the others: max response, negative = inhibition, hits mostly inhibitors | Cruzipain (Trypanosoma cruzi), P25779; active means well fitted curve in the direction sought with a large enough effect; inconclusive means small, poorly fitted or top-dose-only effect, or another doubt; inactive means no such curve, though single readings can be large; an effect the other way counts as inactive or inconclusive;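 further: plate controls were enzyme without inhibitor for no effect and buffer without enzyme for full effect; nearly all actives have a fitted effect of over 40% in size; top concentration of the series not given in the record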
#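 Purified cruzain at 1.5 nM, pre-incubated 15 min with compound at room temperature in 100 mM sodium acetate pH 5.5, 5 mM DTT, 0.00005% Triton X-100. Reaction started with 2 uM Z-FR-AMC; AMC fluorescence increase over 60 s gives rate.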
# 2A StopGo = High Throughput Screening for Foot and Mouth Disease Virus Antivirals; human cells with a luciferase reporter of 2A StopGo recoding; control for the full effect not named in the record; AID 1159524, 2015; Potency, µM (series often up to 57.9 µM), for inactives: at the highest dose signal change, negative = less light; 410,000 compounds, 1.2% hits; active = well fitted falling curve with a large enough effect; inconclusive = small, poorly fitted or top-dose-only effect; inactive = no such curve, though single readings can be large or run the other way; tested in HEK293T cells; further: on the % scale 0 is the no-effect control and ±100 the full control effect; nearly all actives have a fitted effect of over 45% in size; luciferase light after 4 h
# SARS PLpro yeast = qHTS of Yeast-based Assay for SARS-CoV PLP. Potency, µM (highest dose often 32.9 µM), without a hit: at the top dose activity, positive = growth rescue. 330,000 compounds, 0.19% hits. S. cerevisiae expressing SARS-CoV PLpro, growth rescue; control for the full effect not named in the record. AID 485353, 2010; further: 0% is about no effect; nearly all actives have a fitted effect of over 55% in size; growth read by luminescence after 48 h
# NS1 function inh = qHTS Assay for Inhibitors of Influenza NS1 Protein Function; 270,000 compounds, 0.4% hits; Potency, µM (top dose mostly 46.1 µM), for the others: at the top dose activity, positive = more growth; S. cerevisiae slowed by influenza A NS1, growth recovery by OD600; AID 2326, 2010; further: actives are rising curves; nearly all actives have a fitted effect of over 50% in size
#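 A cell-based growth assay was used: compounds that relieve NS1-induced slow growth of budding yeast raise OD600. Assay medium was yeast nitrogen base with ammonium sulphate and -URA supplement, pH 6.0, with 2% galactose.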
# RE007 growth inh = qHTS Assay for Inhibitors of the HIV-1 protein Vpr. S. pombe RE007 Vpr strain, BacTiter-Glo ATP luminescence, 24 h; control for the full effect not named in the record. Potency, µM (top dose mostly 92.2 µM), for the others: top-dose activity change, negative = less growth. 360,000 compounds, 0.21% hits. AID 651644, 2012; active = well fitted falling curve with a large enough effect; inconclusive = small, poorly fitted or top-dose-only effect; inactive = no such curve, though single readings can be large or run the other way;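 further: on the % scale 0 is the no-effect control and ±100 the full control effect; nearly all actives have a fitted effect of over 50% in size; the assay follows cell death caused by Vpr and the record does not say whether a fall means rescue or toxicity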
#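 Fission yeast RE007 carrying one integrated HIV-1 vpr copy, seeded at OD 0.01 in PMG+AL medium with 23 nL pinned compound. Grown 24 h at 30 degrees; viability read by BacTiter-Glo luminescence after 5 min.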
# Numbers without * were called inactive; ? = inconclusive; . = no result given; & = joins results of further samples; [ ] = dose if it differs, or a comment. Unless noted, the call rests on the fitted dose curve; in most records, active means well fitted rising curve with a large enough effect; inconclusive means small, poorly fitted or top-dose-only effect; inactive means no such curve, though single readings can be large or run the other way. Potency means the concentration at half of the fitted maximal effect. Hits appear at their usual frequency. About 4.7% of those tested had a hit in this group.
SMILES,Cruzain Triton,Lassa entry inh,MARV entry inh,Cruzain inh noDet,2A StopGo,SARS PLpro yeast,NS1 function inh,RE007 growth inh
CC1Oc2ccccc2N(CC(=O)Nc2ccc(F)cc2)C1=O (stereo not given),.,-8.7%,5.0%,.,-12.4%,0.1%,13.3%,7.7%
Cc1cc(C)n(C(C)CC(=O)Nc2ccc(Cl)cc2C)n1 (stereo not given),-1.3%,-14.0%[46.1 µM],.,9.4%,-6.8%,.,.,.
O=C(c1ccccc1)c1cc([N+](=O)[O-])ccc1N1CCOCC1,-3.0%,-21.2%,?,1.8%,-24.4%,2.4%,-4.2%,5.9%
O=C(Nc1ccc(F)cc1F)c1ccc(-n2cnc3cccnc32)cc1,-3.3%,-4.8%[46.1 µM],.,4.0%,21.1%,.,.,.
Cc1ccc(CNC(=O)c2c(Nc3ccccc3C)sc(C(=O)c3ccc(F)cc3)c2N)cc1,-4.1%,?,.,?,-13.3%,.,.,.
COc1ccc(-n2c(=O)c3ccccc3n(CC(=O)NCCc3ccccc3)c2=O)c(OC)c1,-1.0%,-3.0%[46.1 µM],-4.5%[46.1 µM],2.9%,-13.9%,.,.,.
O=[N+]([O-])c1ccc(/C=N/Nc2nc(N3CCCC3)nc(N3CCCC3)n2)o1,-7.0%,-17.2%,?,-3.0%,-17.6%,2.7%,-8.4%,-9.8%
O=C(C1CC(=O)N(c2ccc(Cl)cc2)C1)N1CCOCC1 (stereo not given),.,-1.6%[46.1 µM],1.5%[46.1 µM],.,13.8%,-0.1%,5.8%,-17.7%
Cc1cc(C)n2c3c(c(C#N)c2n1)CCCC3,1.6%,-2.5%,-4.3%[46.1 µM],-6.9%,-6.9%,3.7%,-12.6%,-0.5%
COc1ccccc1CNC(=O)CCC1N=C2c3ccccc3N=C(SCC(=O)Nc3ccc(N(C)C)cc3)N2C1=O (stereo not given),-1.4%,15.1%[46.1 µM],.,-13.3%,3.6%,.,.,.
C=CCNS(=O)(=O)c1nc(C)c(Cl)c(C)c1C#N,-0.6%,0.5%,-15.2%,-1.0%,58.8%[activator],-6.1%,1.3%,-5.0%
Cc1cccc(NS(=O)(=O)c2nnc(NC(=O)C3CCCCC3)s2)c1,-2.8%,?,.,-3.6%,0.0%&-14.0%,?,12.8%,0.8%
COc1ccc(/C=N/Nc2ncc(-c3ccccc3)cn2)c(OC)c1,-24.7%,-15.6%,-26.8%,-10.8%,-12.8%,-22.2%,2.7%,-8.5%
CCc1ccc(N(C(=O)c2snc(C(N)=O)c2N)C(C(=O)NCC2CCCO2)c2cccs2)cc1 (stereo not given),.,?,?,.,9.7%,4.3%,.,21.2%
O=C(Cc1ccccc1)Nc1ccc(N2CCOCC2)cc1N1CCOCC1,2.4%,-1.3%,1.3%,-2.3%,17.9%,-3.1%,-4.0%,0.4%

# A different layout for some results above.
molecule	Cruzain Triton	Lassa entry inh	MARV entry inh	Cruzain inh noDet	2A StopGo	SARS PLpro yeast	NS1 function inh	RE007 growth inh
Cc1ccc(CNC(=O)c2c(Nc3ccccc3C)sc(C(=O)c3ccc(F)cc3)c2N)cc1	-4.1%	?	.	?	-13.3%	.	.	.
COc1ccc(-n2c(=O)c3ccccc3n(CC(=O)NCCc3ccccc3)c2=O)c(OC)c1	-1.0%	-3.0%[46.1 µM]	-4.5%[46.1 µM]	2.9%	-13.9%	.	.	.
O=[N+]([O-])c1ccc(/C=N/Nc2nc(N3CCCC3)nc(N3CCCC3)n2)o1	-7.0%	-17.2%	?	-3.0%	-17.6%	2.7%	-8.4%	-9.8%
O=C(C1CC(=O)N(c2ccc(Cl)cc2)C1)N1CCOCC1 (stereo not given)	.	-1.6%[46.1 µM]	1.5%[46.1 µM]	.	13.8%	-0.1%	5.8%	-17.7%
Cc1cc(C)n2c3c(c(C#N)c2n1)CCCC3	1.6%	-2.5%	-4.3%[46.1 µM]	-6.9%	-6.9%	3.7%	-12.6%	-0.5%

# Further structures follow.
SMILES,Cruzain Triton,Lassa entry inh,MARV entry inh,Cruzain inh noDet,2A StopGo,SARS PLpro yeast,NS1 function inh,RE007 growth inh
Cc1ccccc1-c1nnc2c3ccccc3c(C)nn12,-0.8%,16.5%,6.1%,1.7%,-6.2%,-15.9%,-23.1%,-1.8%
Cn1cnc([N+](=O)[O-])c1Sc1nnc(-c2cccnc2)n1C,3.3%,.,.,12.9%,?,0.1%,-3.1%&0.0%,1.6%
Cc1nc2scc(C)n2c(=O)c1S(=O)(=O)NCc1ccccc1,.,.,.,.,2.5%,1.0%,-6.1%,0.3%
COC(=O)c1cc(-c2ccccc2)sc1NC(=O)CN1C(=O)c2ccccc2C1=O,-3.2%,2.9%,-0.8%,25.1µM*,2.3%,4.3%,24.1%,14.9%
O=C(N/N=C1/CC2CCC1C2)c1cc2ccccc2cc1O (stereo not given),.,-3.7%[46.1 µM],?,.,31.8%[activator],-5.8%,7.6%,-18.2%
Cc1ccc(Oc2ncc(-c3ccc(Cl)cc3)cn2)cc1,5.4%,0.5%,10.4%[46.1 µM],?,-4.4%,-26.2%,-4.0%,3.8%
O=C(c1cc2ccccc2oc1=O)N1CCN(c2ccc(F)cc2)CC1,-7.4%,?,12.5%[46.1 µM],0.7%,-5.9%,.,.,.
COc1ccc(NS(=O)(=O)c2ccc(NC(=O)C3CC3)cc2)cc1,.,?,-26.0%,.,-18.8%,-4.0%,0.3%,0.9%
CN(CC(=O)Nc1c(Cl)cccc1Cl)C(=O)CCC(=O)c1ccccc1,.,-12.4%,-12.6%,.,-10.9%,-4.2%,.,12.9%
COc1ccc(NC(=O)Cn2ccn(-c3ccccc3)c(=O)c2=O)cc1,-1.4%,12.5%[46.1 µM],.,3.7%,-3.9%,.,.,.
Cn1c(SCC(=O)Nc2ccc(F)cc2)nc2c([nH]c3ccccc32)c1=O,-1.9%,-26.4%[46.1 µM],.,0.6%,27.0%&30.7%,0.3%,1.4%,-1.7%
Cc1cccc(C(=O)NNC(=O)c2ccccc2-n2cccc2)c1,.,22.4%[46.1 µM],3.5%[46.1 µM],.,-8.9%,0.2%,.,11.1%
CCCN1CCN(CCCNC(=O)c2cnn(-c3ccc(F)cc3)c2-n2cccc2)CC1,-0.3%,-3.4%[46.1 µM],.,-14.2%,24.8%,.,.,.
CCNC(=O)C(=O)Nc1ccc(OC)c(Cl)c1,.,24.1%,-2.3%[46.1 µM],.,0.0%,-2.7%,5.5%,-1.0%
O=C(CCCn1c(=S)[nH]c2cc3c(cc2c1=O)OCO3)N1CCN(c2ccc(Cl)cc2)CC1,1.0%,?,?,?,?,18.9%,?,-17.1%[3.69 µM]
O=Cc1ccccc1OCCCOc1cccc2cccnc12,.,.,.,.,12.5%,-11.1%,-78.3%,-1.6%
COCCNC(=O)CSCc1cc(C)cc(C)c1,.,-4.4%,8.7%[46.1 µM],.,-9.0%,0.9%,.,13.4%
C=CCn1c(O)c(C(C)=Nc2ccc(N(C)C)cc2)c(=O)[nH]c1=O,-5.7%,?,?,-7.4%,1.0%,0.8%,-5.5%,-4.3%
COc1ccccc1NC(=S)N1CCn2cccc2C1c1cccnc1 (stereo not given),.,5.8%,18.9%[46.1 µM],.,-9.3%,3.7%,.,-4.5%
O=C(c1ccc(S(=O)(=O)N2CCCC2)cc1)N1CCN(Cc2ccc3c(c2)OCO3)CC1,0.6%,-10.9%,9.0%,-0.1%,-23.5%,2.5%,-9.7%,13.9%
CN(C)S(=O)(=O)c1ccc(Cl)c(NC(=O)CNC2(C)CCS(=O)(=O)C2)c1 (stereo not given),.,3.2%[46.1 µM],-4.1%[46.1 µM],.,-7.1%,1.9%,.,0.3%
O=C(O)c1cc([N+](=O)[O-])cc2ccccc12,.,19.5%[46.1 µM],12.9%[46.1 µM],.,10.3%,.,.,-18.1%
CCN(c1ccccc1)S(=O)(=O)c1ccc(NC(=O)c2cc(=O)c3cc(C)cc(C)c3o2)cc1,-0.8%,-4.0%[46.1 µM],?,-3.6%,-18.2%,.,.,.
CCCC(C)CO (stereo not given),13.3%,.,.,2.1%,-23.7%,-1.1%,.,-4.8%
COCCNC(=O)C1CC(c2cccc([N+](=O)[O-])c2)=NO1 (stereo not given),3.4%,.,.,-2.3%,-10.9%,0.9%,8.0%,-4.1%
C[N+]1(C)CC2=Cc3ccccc3CC2C1 (stereo not given),.,6.4%[46.1 µM],6.1%[46.1 µM],.,-0.3%,0.1%,5.4%,-1.5%
CN1CCN(c2ccc(S(=O)(=O)Nc3ccccc3)cc2[N+](=O)[O-])CC1,-1.5%,-7.0%,?,-3.4%,0.0%,-17.1%,2.2%,.
CCC(CC)c1nnc(NC(=O)c2ccc3ccccc3n2)s1,-4.7%,?,?,4.8%,35.2%[activator],1.3%,3.4%,-2.9%
CCN(CC)C(=O)C(C)N(C#N)c1nc(SC)nc(N(C)C)n1 (stereo not given),0.0%,-1.1%,-5.5%,3.1%,9.5%,0.2%,-5.9%,1.5%
Cc1ccc(-c2nc(C#N)c(NCC3CCCO3)o2)cc1 (stereo not given),.,.,1.4%[46.1 µM],.,61.1%[activator],-2.1%,-14.5%,-18.5%
CCOc1ccc(S(=O)(=O)NCCCn2ccnc2)cc1NC(C)=O,.,4.5%[46.1 µM],-1.5%[46.1 µM],.,-8.5%,2.3%,8.3%,-18.1%
COc1ccc(Br)cc1C(=O)Nc1cccc2ccc(C)nc12,0.2%,8.7%[46.1 µM],8.2%[46.1 µM],-1.1%,-7.7%,.,.,.
COc1ccc(N(C)C(=O)Nc2ccc3c(c2)nnn3C)cc1,0.2%,15.1%,4.0%,7.2%,11.5%,-1.5%,-4.6%,-3.7%
